# Screens from PubChem BioAssay.
# AF4-AF9 inh – inhibitors of AF4 peptide binding to AF9, primary screen, biochemical, AlphaScreen, biotin-AF4 peptide, FLAG-AF9, single point | inhibition, % at 10 µM | 0.47% of 350,000 active | AID 651704, 2012;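 active means every replicate reaching a set inhibition limit, whatever the replicate mean, cut at about 25% in these data; inconclusive means mean inhibition reaches that limit but some replicates miss it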;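 further: 0% = plate neutral control median and 100% = total signal loss; the record names both 10 and 1 µM as test concentration; the first replicate is given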
# FGF22 binding – binders of human FGF22 protein, primary screen, FGF22 synaptogenesis inhibitor project, biophysical, thermal shift, single point; Fibroblast growth factor 22 (Homo sapiens), Q9HCT0; recombinant FGF22 thermal shift, SYPRO orange fluorescence; percent of sucrose octasulfate shift, DMSO zero; calls only at 9.99 µM; 1.5% of 340,000 active; AID 651658, 2012;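 active means melting point raised past a set limit in the mean and every replicate; inconclusive means no clear call; three in four hits are not shown here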
# Target sequence (Q9HCT0 whole entry, looked up): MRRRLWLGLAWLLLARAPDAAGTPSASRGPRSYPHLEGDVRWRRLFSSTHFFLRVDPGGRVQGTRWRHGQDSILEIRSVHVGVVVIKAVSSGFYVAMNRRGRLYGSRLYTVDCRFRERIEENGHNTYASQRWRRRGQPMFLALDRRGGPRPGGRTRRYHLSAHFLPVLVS
# RanGTP-Impb inh – inhibitors of RanGTP-importin-beta interaction, primary screen, biochemical, FRET, CFP-Ran, YFP-importin-beta, homogeneous. Ran GTPase (GTP-bound) - importin-beta complex. cell-free CFP-Ran/YFP-importin-beta FRET ratio. inhibition, % (test concentration not listed). 1.1% of 300,000 active;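 active means most replicates above 15%; inconclusive means exactly half above 15%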;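 further: 0% = DMSO wells and 100% = Ran loaded with GDP instead of GTP; wells of about 40 µL received 100 nL stock; the first replicate is given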
# UCH37 DUB inh – inhibitors of human UCH37 deubiquitinase, primary screen, biochemical, Ub-AMC cleavage, fluorescence. Ubiquitin carboxyl-terminal hydrolase isozyme L5 (Homo sapiens), Q9Y5K5. purified proteasome/UCH37. inhibition, % (no concentration beside the values). 0.33% of 330,000 active. AID 588478, 2011;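 active means mean of two replicates above 20%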;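 further: 0% = compound-free wells with enzyme and 100% = wells lacking proteasome; stock transfer was 100 nL into about 20 µL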
# Target sequence (Q9Y5K5 whole entry, looked up): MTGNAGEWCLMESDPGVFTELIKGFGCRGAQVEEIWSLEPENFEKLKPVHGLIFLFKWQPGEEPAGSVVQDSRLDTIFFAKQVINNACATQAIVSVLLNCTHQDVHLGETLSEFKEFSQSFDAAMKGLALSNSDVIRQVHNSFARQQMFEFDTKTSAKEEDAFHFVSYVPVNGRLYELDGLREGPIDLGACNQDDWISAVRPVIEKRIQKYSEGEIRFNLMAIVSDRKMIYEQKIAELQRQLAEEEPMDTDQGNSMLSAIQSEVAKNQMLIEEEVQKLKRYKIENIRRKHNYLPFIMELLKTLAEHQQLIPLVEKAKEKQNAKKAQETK
#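 Material: human UCH37 enzyme supplied as purified proteasome complex. Measure: % inhibition of Ub-AMC cleavage fluorescence. Medium: pH 7.4 Tris-HCl (50 mM) with ovalbumin, ATP-MgCl2, DTT. Times: 30 min preincubation with enzyme, 25 min cleavage at room temperature. Detection: AMC fluorescence intensity at 355/460 nm.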
# Vif TR-FRET – inhibitors of Vif binding to APOBEC3G peptide, primary screen, biochemical, TR-FRET, GST-Vif 1-94, biotin-A3G peptide, dose response retest (AID 1117319); 0.57% of 260,000 active; TR-FRET GST-Vif / biotin-A3G peptide binding; higher % means a stronger effect; test concentration not given here; strong numbers were not always called active; inhibition, %; hits with a dose series show IC50 in µM; Virion infectivity factor (Human immunodeficiency virus type 1 group M subtype B (isolate …;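 active means above the screen mean plus three standard deviations and confirmed in dose response; inconclusive means results disagree or hit not tested in dose response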;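 further: Vif residues 1-94 fused to GST binding biotinylated APOBEC3G peptide 110-148; 0% = full assay without inhibitor and 100% = GST in place of GST-Vif; retest series ran down from 100 µM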
# HNF4A DNA FP – change in binding of human HNF4A to DNA, primary screen, biochemical, fluorescence polarization, FITC-DNA. Hepatocyte nuclear factor 4-alpha (Homo sapiens), P41235. 1 h. 0.3% of 360,000 active. AID 1224865, 2016. activity change, % at 10 µM; in the data active means activity change above about 30%, passing the limit was not always enough;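 further: controls were the assay level and a saturating level of protein; the project sought stronger binding though the title names inhibitors; some compounds called inactive have numbers as strong as hits; positive values seem to mean higher polarization but the record does not say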
# Target sequence (P41235 whole entry, looked up): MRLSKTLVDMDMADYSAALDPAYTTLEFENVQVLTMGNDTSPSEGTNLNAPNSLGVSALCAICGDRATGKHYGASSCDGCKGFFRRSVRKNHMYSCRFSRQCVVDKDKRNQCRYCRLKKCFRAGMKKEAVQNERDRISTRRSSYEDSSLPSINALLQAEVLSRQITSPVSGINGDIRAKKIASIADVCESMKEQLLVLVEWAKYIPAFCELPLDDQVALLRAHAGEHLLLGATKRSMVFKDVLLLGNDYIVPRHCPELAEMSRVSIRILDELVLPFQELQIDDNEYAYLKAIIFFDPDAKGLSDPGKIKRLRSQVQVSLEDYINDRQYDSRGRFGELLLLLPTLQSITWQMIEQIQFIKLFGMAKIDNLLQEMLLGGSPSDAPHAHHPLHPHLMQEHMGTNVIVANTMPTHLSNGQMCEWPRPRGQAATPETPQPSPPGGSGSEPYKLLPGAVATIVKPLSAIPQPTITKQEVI
# Ecoli growth – E. coli growth inhibition, primary screen, OD600; 0.21% of 330,000 active; Escherichia coli growth, 23 h; stronger effect = lower value; OD600 absorbance (no concentration beside the values); AID 1053175, 2014;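 active means OD600 absorbance below the run mean of sample wells minus 3.6 SD, in any replicate, cut at about 0.56 in these data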;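 further: stock transfer was 300 nL into about 60 µL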
# Active calls of the source: *; i = inactive; ? = inconclusive; . = not tested or not shown; & = joins results of further samples. This is a subset. The share of hits here may be higher or lower than overall.
SMILES,AF4-AF9 inh,FGF22 binding,RanGTP-Impb inh,UCH37 DUB inh,Vif TR-FRET,HNF4A DNA FP,Ecoli growth
CC(=O)c1ccc(NC(=O)Nc2ccc(Br)cc2C)cc1,-0.5,i,2.4,3.8,-32%,-3.6,0.74
O=C(c1ccc(Br)o1)N(c1ccc(Br)cc1)C1C=CS(=O)(=O)C1 (stereo unspecified),.,.,-1.2,2.1,3%,0.5,0.71
CS(=O)(=O)N1CCN(c2ccc([N+](=O)[O-])c(SCc3ccco3)c2)CC1,-3.7,i,3.9,3.2,16%,3.9,0.65
O=C(COc1ccc2c3c(c(=O)oc2c1)CCC3)N[C@@H](Cc1ccccc1)C(=O)O,-5.3,i,-0.9,-18,.,1.5,0.72
COc1ccc(CN2C(=O)CN(S(C)(=O)=O)CC2(C)C(=O)NCc2ccccc2)cc1OC (stereo unspecified),-0.4,i,.,.,.,-2.2,.
CSc1ccccc1-c1ccc2nccn2c1,0.2,i,.,.,.,1.1,.
Cc1ccccc1NC(=O)CSc1nc2cc3c(cc2cc1C)CCC3,2.7,i,?,-2.2,-52%,2.7,0.73
O=C(NNc1cc(Cl)cc(Cl)c1)c1c(F)cccc1Cl,2.8,i,-6.3,2.4,70%,3.8,0.65
CN(c1ccccc1C(=O)Nc1cccc([N+](=O)[O-])c1)S(C)(=O)=O,-2.3,i,1.5,2.8,4%,0.1,0.69
O=C(c1ccccc1)c1nn(-c2cccc(Cl)c2)ccc1=O,?,i,6.0,6.6,.,-3.0,0.63

# The final four entries of the part before lead into the next:
SMILES,AF4-AF9 inh,FGF22 binding,RanGTP-Impb inh,UCH37 DUB inh,Vif TR-FRET,HNF4A DNA FP,Ecoli growth
Cc1ccccc1NC(=O)CSc1nc2cc3c(cc2cc1C)CCC3,2.7,i,?,-2.2,-52%,2.7,0.73
O=C(NNc1cc(Cl)cc(Cl)c1)c1c(F)cccc1Cl,2.8,i,-6.3,2.4,70%,3.8,0.65
CN(c1ccccc1C(=O)Nc1cccc([N+](=O)[O-])c1)S(C)(=O)=O,-2.3,i,1.5,2.8,4%,0.1,0.69
O=C(c1ccccc1)c1nn(-c2cccc(Cl)c2)ccc1=O,?,i,6.0,6.6,.,-3.0,0.63
COc1cccc(CNc2nc3ccccc3n2C(C)C)c1O,4.6,i,-1.4,4.8,.,-3.9,0.69
CN(CCOc1ccc(Cl)cc1)CC(=O)Nc1ccc(OC(F)F)cc1,-0.6,i,9.1,2.9,-3%,-1.2,0.69
O=C1Cc2cc(NS(=O)(=O)c3ccc(F)cc3)cc3c2N1CCC3,-0.4,i,-1.5,2.0,1%,-1.6,0.7
COC(=O)Cc1c(C)c2ccc(OC3CCCCC3=O)cc2oc1=O (stereo unspecified),-1.0,i,-5.9,-229,-2%,-2.2,0.68
CCc1noc(C)c1C(=O)N1CCCC(CCC(=O)NCc2ccc(F)c(F)c2)C1 (stereo unspecified),-5.2,i,3.9,0.3,.,-0.3,0.7
Cn1c(NCC(O)c2ccccc2)nc2c1c(=O)n(Cc1ccc(Cl)c(Cl)c1)c(=O)n2C (stereo unspecified),.,.,1.0,2.8,.,2.5,0.76
C[C@@H]1CN([C@@H](C)CO)C(=O)CCCn2nncc2CO[C@H]1CN(C)S(=O)(=O)c1ccc(C#N)cc1,-2.7&-1.9,i,.,.,-3%,-2.1,.
CCCn1c(SCC(=O)NC2CCCC(C)C2C)n[nH]c1=O (stereo unspecified),.,.,0.6,1.6,-1%,1.3,0.73
COc1ccc(C(=O)NCCNc2nc3c(C)cccc3cc2C#N)cc1OC,2.2,i,40*,-84,-3%,5.1,0.66
COc1ccc(Nc2nc(N)nc(CN3CCC(C)CC3)n2)cc1,1.9,i,-0.3,1.5,0%,-2.5,0.72
Cc1nc(S(=O)(=O)Nc2ccccc2C(=O)NCC2CC2)cn1C,0.5,i,?,-19,2%,1.5,0.7
CN(C)C1=NCCN1CC1CCCCCC1,.,i,.,1.3,.,0.2,0.63
COc1ccc(-c2ccc([C@H]3[C@H]4C=CC[C@@H](C)[C@@H]4C(=O)N3Cc3ccccc3)c(F)c2)cc1OC,1.2,i,-3.6,0.3,.,8.9,.
CC1(C)CC(=O)C(CS(=O)(=O)c2ccccc2)=C(O)C1,-4.8,i,0.7,4.0,.,1.0,0.72
CCCCN(CCCC)CCNC(=O)CN1C(=O)CSc2ccc(S(=O)(=O)N3CCCCC3)cc21,-0.2,i,1.0,3.3,-4%,3.9,0.69
CCOC(=O)CCNc1n[nH]c(=O)[nH]c1=O,.,.,-1.2,-0.9,-1%,-0.2,0.71
CCCCN(CC)CCNC(=O)Cn1cnc2sc(C)c(S(=O)(=O)N3CCC(C)CC3)c2c1=O,-0.3,i,?,1.6,.,-0.2,0.75
COc1ccc(C(=O)NCC(=O)N/N=C/C=C/c2ccccc2)cc1OC,0.8,.,-1.1,.,-5%,3.0,.
CCCCn1cnc2c(SCc3ccccn3)nc(N)nc21,-0.6,i,.,2.1,-2%,-1.3,0.67
CCCC[C@@H]1CNC(=O)C(=O)N1CCc1cc(C(F)(F)F)cc(C(F)(F)F)c1,0.3,i,0.8,2.2,.,3.8,.
O=C(Nc1ccc(F)cc1F)c1ccc2c(c1)OCCO2,1.0,i,3.6,0.1,.,1.2,0.68
Cc1ccc(-c2nnc(NCc3nc4ccccc4[nH]3)c3ccccc23)cc1S(=O)(=O)N1CCCCC1,.,.,0.5,-16,.,-0.6,0.71
Cn1c2c(c(=O)n(C)c1=O)CN(CC1CCCO1)CN2 (stereo unspecified),.,.,?,-1.1,-10%,-1.5,0.68
CC(=O)Nc1ccc(OCCOc2ccccc2C(C)=O)cc1,-2.2,i,?,5.3,2%,-1.8,0.68
S=c1[nH]cc(-c2ccc(Cl)cc2)n1Cc1ccccc1,0.4,i,5.1,2.8,.,-0.6,0.75
CCOc1ccc(Cc2nnc(N)s2)cc1OCC,.,.,0.6,2.1,-4%,0.7,0.78
CCc1ccccc1N(CC(=O)N1CCCCC1)S(=O)(=O)c1ccccc1,1.3,i,-1.9,2.4,.,-0.6,0.63
O=C(Nc1ccc(C(=O)O)cc1)/C(=C/c1ccc2c(c1)OCO2)NC(=O)c1cccc(Br)c1,1.4,i,1.8,3.1,.,-2.8,.
COc1cc2cc(c1Cl)N(C)C(=O)CC(OC(=O)C(C)N(C)C(C)=O)C1(C)OC1C(C)C1CC(O)(NC(=O)O1)C(OC)C=CC=C(C)C2 (stereo unspecified),-0.1,i,.,.,8%,0.7,.
CCOc1ccc(OCCC(=O)N(CCC2=CCCCC2)c2c(N)n(Cc3ccccc3)c(=O)[nH]c2=O)cc1,3.8,i,2.6,1.5,.,0.0,0.71
CC1CCC2(CC1)NC(=O)N(CC(=O)c1cn(CCC#N)c3ccccc13)C2=O (stereo unspecified),-1.4,i,4.3,3.7,-4%,3.3,0.67
CC(C)(C)C(=O)N1CCN(c2ncnc3scc(-c4ccccc4)c23)CC1,-13,i,0.2,0.3,-8%,2.3,0.69
CCCc1nc2ccccc2n1Cc1ccccc1OC,0.8,i,2.0,3.6,-3%,-2.0,0.65
CCCCN1CCNC[C@@H]1c1ccccc1,4.7,i,.,-1.8,.,-2.0,.
COc1cc([N+](=O)[O-])cc2cc(C(=O)NC(C)(C)C)c(=O)oc12,.,.,0.8,1.6,10%,1.1,0.67
O=C(Cn1sc2ccccc2c1=O)Nc1ccc(Cl)cc1,-3.8,.,.,.,.,2.3,.
CN(C(=S)Nc1ccccc1F)C1(c2ccccc2Cl)CCCCC1=O (stereo unspecified),.,.,3.3,4.9,1%,-0.2,0.68
C(=N\n1cnnc1)/c1cn(Cc2ccccc2)c2ccccc12,.,.,-5.0,.,-19%,2.0,.
O=C(Cn1cnc2ccccc2c1=O)NCCC(=O)N1CCN(Cc2ccccc2)CC1,.,.,2.9,3.8,0%&2%,2.5,0.69
CCOC(=O)COn1c(=O)c(=O)n(O)c2ccccc21,.,.,1.7,7.0,9%,-1.2,0.77
C=CCOc1ccc(C2/C(=C(\O)c3ccc(F)cc3)C(=O)C(=O)N2CCCN(C)C)cc1 (stereo unspecified),.,.,3.1,6.6,10%,-0.8,0.71
Brc1ccc(-c2cn3c(n2)SCC3)cc1,4.4,i,-1.7,3.5,-8%,-0.6,0.77
CCCCN(C)CCCNC(=O)C1CCC(CNS(=O)(=O)c2c(C)cc(C)cc2C)CC1 (stereo unspecified),4.1,i,1.5,2.3,-2%,2.0,0.66
CCN(CC)C(=O)Cn1cc(C(=O)C(=O)Nc2ccc3c(c2)OCCO3)c2ccccc21,1.3,i,3.5,5.2,.,-1.5,0.69
O=C(Nc1nc2ccc(S(=O)(=O)N3CCCCC3)cc2s1)c1cccnc1,.,.,22*,2.9,-2%,7.4,0.76
N/C(Cc1ccc(Cl)cc1Cl)=N\OC(=O)c1cccs1,.,.,-2.3,2.8,4%,-1.8,0.68
Cc1cc(C)c2c(c1)/C(=N/NS(=O)(=O)c1ccccc1)CCC2,.,.,0.8,.,?,-0.7,.
Cc1nc2ccccc2c(=O)n1/N=C/c1ccccc1,.,.,?,.,2%,-1.4,.
NC(=O)NC(=O)CSc1cccc(C(F)(F)F)c1,.,.,4.4,2.7,24%,-1.7,0.63
C[C@@H](C(=O)N1CCN(Cc2ccc3c(c2)OCO3)CC1)n1nnc2ccccc2c1=O,1.5,i,1.7,-0.6,5%,1.9,0.66

# Next section
SMILES,AF4-AF9 inh,FGF22 binding,RanGTP-Impb inh,UCH37 DUB inh,Vif TR-FRET,HNF4A DNA FP,Ecoli growth
O=C(O)CC1S/C(=N/N=C/C=C/c2ccccc2)NC1=O (stereo unspecified),-4.9,i,?,25*,?,0.3&2.0,0.67
COc1ccc([C@@H]2C[C@@H](c3ccccc3)Oc3c(C)ccc(C(C)C)c32)cc1,6.7,i,-0.8,.,.,.,.
CCn1c(SCC(=O)N2CCCCCC2)nc2c(c1=O)SCC2,-12,i,0.5,8.6,1%,3.0,0.67
CN(c1cccc(NC(=O)c2cccc([N+](=O)[O-])c2)c1)S(C)(=O)=O,-0.4,i,4.6,0.8,-2%,-2.7,0.68
CC1CCc2sc(C(=O)NCC(C)(C)N3CCOCC3)cc2C1 (stereo unspecified),-14,i,-1.6,-0.9,-5%,3.5,0.69
O=C(CSc1nnc2ccccn12)Nc1ccccc1C(=O)O,-2.3,.,3.2,-2.8,3%,-2.7,0.67
Cc1ccc(CNc2nc3ccccc3n2C)o1,3.6,i,0.3,2.3,.,-5.2,0.62
CC(NC(=O)COc1ccccc1)C(c1ccccc1)N1CCN(C)CC1 (stereo unspecified),.,.,?,5.8,-4%,1.2,0.68
COc1cccc(C2=NOC(C(=O)Nc3ccc(C(C)=O)cc3)C2)c1 (stereo unspecified),.,.,4.6,1.9,-4%,-3.2,0.64
CSc1ccc(/C=N/N2CCN(Cc3ccc(C)cc3C)CC2)cc1,6.8,i,1.4,.,-2%,-1.3,.
CC(C)(C)S(=O)(=O)c1cnc(-c2cnccn2)nc1N,0.3,i,0.5,0.0,.,0.5,0.71
COc1ccc(OCC(=O)N2c3ccccc3CC2C)c([N+](=O)[O-])c1 (stereo unspecified),8.7,i,.,3.9,10%,1.6,0.7
COc1cc(NC(=S)NCCc2c[nH]c3ccccc23)c(OC)cc1Cl,.,.,0.4,1.9,5%,2.1,0.7
